Bioassay records as filed in PubChem.
Tg IFNy HTS: blocks Toxoplasma gondii growth in the presence of IFN-gamma. Toxoplasma gondii growth in IFN-gamma-treated host cells; hits give low values; reference of the scale not given here. activity change, negative = inhibition, %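 (about 20 µM by stock and volumes)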. AID 1259416. 69,000 tested, 3.8% active;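 active = below -70%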;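 note: host cells are HeLa cells infected with Toxoplasma gondii; parasite growth read as luciferase light; one replicate is shown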
* marks the source's active call; other numbers are inactive results.

item	SMILES	Tg IFNy HTS
1	COC(=O)c1cnc(NN2C(=O)CCC2=O)nc1C(F)(F)F	65.3
2	Cc1c(-c2cncn2CCNC2CCS(=O)(=O)C2)[nH]c2ccccc12 (stereo unspecified)	-14.4
3	Cc1cccc(S(=O)(=O)N2CCC3(CC2)C(=O)NCCN3Cc2ccccc2)c1	-14.9
4	CN1CCC(Cc2noc(CN3CCCCCCC3)n2)CC1	1.2
5	CNC(=O)C[C@@H]1C[C@@H]2CN(S(=O)(=O)c3ccccc3)C[C@@H]2O1	6.0
6	O=C(Nc1ccc2ccccc2n1)c1ccc(Cl)cc1	304.7
7	CCc1ccc(NC(=O)C(=O)NCCc2sc(-c3ccc(F)cc3)nc2C)cc1	32.0
8	COc1cccc(C(=O)Nc2ccc(-c3nc(Cn4cc(C)cn4)c(C)o3)cc2)c1	-92.7*
9	Cc1noc(CN(C)Cc2cc3cc4c(cc3[nH]c2=O)CCC4)n1	-4.8
10	COc1ccc(CC2(CO)CCN(c3ncnc4c3CCC4)CC2)cc1	-49.9
11	CCS(=O)(=O)N1CCC2(CC1)CN(C(=O)c1cccc(F)c1)[C@H](CO)c1c2c2ccc(OC)cc2n1C	-14.8
12	Cc1nc2ccccc2c(=O)n1NC(=O)c1ccccc1	-1.7
13	N#Cc1c(-c2cccnc2)c2c([nH]c1=O)-c1ccccc1SC2	48.1
14	CCCNC(=O)N1C[C@H](O)COC[C@H]2O[C@@H](CC(=O)OC)CC[C@@H]21	-12.5
15	COC(=O)c1sccc1S(=O)(=O)Nc1ccc(C)cc1	11.2
16	CC(C)CNC(=O)C(=O)N1CCCn2nc(C(=O)Nc3ccccc3)cc2C1	-65.4
17	COc1ccc(C[C@H]2CNCC[C@H]2OCC(=O)N2CCCC2)cc1	34.0
18	O=C(O)c1[nH]ncc1CN1CCC(c2[nH]ncc2-c2cccc(F)c2)CC1	-18.7
19	COc1ccc(C(NC(=O)c2ccccc2)NC(=O)c2ccccc2)cc1	-4.3
20	CO[C@H]1CC[C@@H]2CCOc3c(C#N)cccc3C(=O)N(C)CCCC(=O)N(C)C[C@@H]1O2	-13.0
21	Cc1ccc2c(c1)c(-c1cccc(CN3CCOCC3)c1)nn2C	-2.3
22	COCCN1CC[C@@H](O)[C@@H]1Cc1ccccc1	58.8
23	Cc1cc(C)c2c(-n3cccc3)c(C(=O)c3ccc(Cl)cc3)sc2n1	-91.8*
24	O=C(CN1CCCC(c2ccc(-c3ccccn3)cn2)C1)Nc1ccc(F)cc1 (stereo unspecified)	30.7
25	CCn1cnc(NC(=O)NC2CCOC(C)(C)C2)n1 (stereo unspecified)	9.1
26	COc1ccc(NC(=O)Nc2cccc3c2O[C@H](CN(C)Cc2ccc(C(=O)O)cc2)[C@H](C)CN([C@@H](C)CO)C3=O)cc1	-1.5
27	Cc1nc(-c2ccc(F)cc2)sc1-c1ccc(SCc2ccc(C(F)(F)F)cc2)nn1	-2.2
28	Cc1ccccc1NC(=O)c1cc(-c2cnc(N3CCOCC3)nc2)cn1CC1CC1	-26.3
29	O=C(C1CCC1)N1CCCCN2[C@H](CO)[C@H](c3ccc(-c4ccncc4)cc3)[C@@H]2C1	-3.9
30	CS(=O)(=O)N1CCC2(c3ccccc3)CCN(C(=O)C3CC3)CC12 (stereo unspecified)	-8.5
31	Cc1cc(C(=O)N2CCc3c([nH]c4ccccc34)C2C)c2cnn(C(C)C)c2n1 (stereo unspecified)	-60.7
32	O=C(c1ccc(Br)cc1)N1CCC2(CC1)Nc1ccccc1-n1cccc12	14.3
33	O=C(Nc1ccc(C(=O)NC2CCCCC2)cc1)c1cccnc1	12.2
34	CCC1c2ccsc2CCN1Cc1cn[nH]c1-c1cccs1 (stereo unspecified)	51.2
35	CCc1ccccc1NC(=O)C(=O)NCCc1csc(-c2ccc(C(F)(F)F)cc2)n1	-14.0
36	COc1ccccc1CN1C[C@@H]2CN(C)CCO[C@@H]2C1	45.9
37	OC1CCN(c2ccnc(-c3ccc4c(c3)OCCO4)n2)C1 (stereo unspecified)	300.6
38	S=C(NCc1cccnc1)SCc1cc(Cl)sc1Cl	71.7
39	COc1ccc2cc(C(=O)NC(C)c3ccc(N4CCOCC4)cc3)c(C)nc2c1 (stereo unspecified)	-18.8
40	Cc1cccc(NC(=O)C(=O)NCCc2csc(-c3ccc(Cl)cc3)n2)c1	-26.6
41	C=CCn1c2c(ccc1=O)CCN(C(=O)N1CCOCC1)CC2	32.9
42	O=C(Nc1ccccc1)N1CCC2(CC1)Nc1ccccc1-n1cccc12	251.6
43	COc1ccc(-n2c(SCC#N)nnc2-c2cccnc2)cc1	-45.7
44	CC1CCC2(CC1)NC(=O)N(CC(=O)NCc1nc(Cc3ccccc3)no1)C2=O (stereo unspecified)	-6.3
45	CC(NC(=O)CC1CCN(S(C)(=O)=O)CC1)c1nc2ccccc2[nH]1 (stereo unspecified)	-3.8
46	Cn1cnc(S(=O)(=O)N2CC[C@@H]3[C@H](CO)Nc4ccc(C5=CCCCC5)cc4[C@@H]32)c1	34.8
47	Cc1ccc(-c2nc(Cn3nnc(C(=O)Nc4cccc(C)c4C)c3C)c(C)o2)cc1	19.3
48	C[C@H](CO)N1C[C@H](C)[C@@H](CN(C)C(=O)[C@H](Cc2ccccc2)N(C)C)OCc2ccccc2-c2ccccc2C1=O	-43.6
49	O=C(CC1SC(=O)NC1=O)Nc1ccc(Cl)cc1 (stereo unspecified)	25.3
50	Nc1ccc(-c2nnn(CC(=O)Nc3ccccc3)n2)cc1	58.7

Remaining list, next part
item	SMILES	Tg IFNy HTS
51	COc1ccc2c3c([nH]c2c1)[C@@H](CO)N(C(=O)C1CCCCC1)CC31CN(S(C)(=O)=O)C1	-22.1
52	CNC(=O)c1cnn2c(C(F)(F)F)cc(C(F)(F)F)nc12	13.8
53	COc1ccc(OC)c(CC(=O)N(C)Cc2ccncc2C)c1	5.8
54	CCN(CC)C(=O)c1cc(=O)n(CC(=O)Nc2ccccc2F)c2ccccc12	12.2
55	COc1ccc(OC)c(NS(=O)(=O)c2cc3c4c(c2)CCC(=O)N4CCC3)c1	130.1
56	CCCc1c(C)nc(N2CCN(Cc3ccccc3)CC2)[nH]c1=O	26.9
57	CCOc1ccc(NC(=O)N2CCC3(CC2)NC(=O)c2ccc(Cl)cc2N3CC)cc1	356.2
58	CCNC(=O)[C@H]1[C@H](CO)[C@H]2Cn3c(ccc(-c4cncnc4)c3=O)[C@H]2N1C(=O)NC1CCCC1	9.0
59	CN1c2ccc(-c3cccc(C#N)c3)cc2[C@H]2[C@H](CCN2C(=O)Cc2ccccn2)[C@H]1CO	16.5
60	CCC(=O)N1C[C@H](O)COC[C@@H]2O[C@@H](CC(=O)NC)CC[C@H]21	37.9
61	Cc1oc(-c2ccccc2)nc1Cn1nc2n(Cc3ccc(F)cc3)c(=O)c3nn(C)cc3n2c1=O	2.6
62	COc1ccc(NC(=O)N2C[C@@H](O)COC[C@H]3O[C@H](CC(=O)N4CCCCC4)CC[C@@H]32)cc1	0.4
63	c1ccc2c(OCCOc3cccc4ccccc34)cccc2c1	-39.8
64	Nc1cc(N)nc(SCC(=O)c2ccccc2)n1	29.8
65	CC(C)Cc1ccc(S(=O)(=O)N2CCC3(CC2)NCCN=C3NC2CCCCC2)cc1	-21.9
66	Cc1ccc2c(c1)C(=O)NC1(CCN(C(=O)Cc3cccc(F)c3)CC1)N2C	8.8
67	CCC(C(=O)N1CCC[C@@H]1C(=O)NCCc1csc(C)n1)c1ccccc1 (stereo partly specified)	16.4
68	COc1ccc2c3c(n(C)c2c1)[C@H](CO)N(CC1CC1)CC31CN(C(=O)c2ccc3c(c2)OCO3)C1	-26.0
69	CCn1nc(C(C)C)cc1-c1n[nH]c(CCc2ccccc2)n1	-27.8
70	CC(C)c1ccc(NC(=O)NCC2CNCCOC2)cc1 (stereo unspecified)	-6.7
71	O=c1[nH]c2cc(Cl)c(Cl)c([N+](=O)[O-])c2[nH]c1=O	16.6
72	O=C(C1Cn2ccnc2C2(CCN(Cc3ccccn3)CC2)O1)N1CCCC1 (stereo unspecified)	-2.5
73	C[C@@H]1CN([C@H](C)CO)C(=O)CCCn2nncc2CO[C@H]1CN(C)Cc1cccc(C(F)(F)F)c1	71.5
74	COCC1(C(=O)NCc2csc(N3CCOCC3)n2)CCC1	7.6
75	CCOC(=O)N1CCN(C(=O)c2ccc(N3CCC(NCc4ccc5c(c4)OCO5)CC3)cc2)CC1	-5.4
76	O=C(O)CNc1ncnc2c1oc1ccccc12	0.7
77	C[C@H]1CCCCO[C@@H](CN(C)C(=O)Nc2ccccc2)[C@@H](C)CN([C@@H](C)CO)C(=O)c2cc(NC(=O)Nc3ccccc3)ccc2O1	98.8
78	Cc1ccc2nc(COCC(=O)Nc3cc(Cl)c4oc(C)cc4c3)[nH]c2c1	-3.7
79	Cc1ccc(S(=O)(=O)NC(=O)Nc2cn(-c3ccccc3)nc2-c2ccccc2)cc1	172.3
80	C[C@H](CO)N1C[C@H](C)[C@H](CN(C)C(=O)Nc2cccc3ccccc23)Oc2ncccc2C1=O	-118.7*
81	Cn1cc(CN2CCC(CNC(=O)NCc3ccccc3)C2)cn1 (stereo unspecified)	-9.2
82	C=CCC(=O)N(C)CCSc1ccc(C)cc1	9.7
83	COCCNc1nc2cc(C(=O)N3CCC(O)(CO)CC3)ccc2n1C	-27.6
84	O=c1[nH]ncc(N2CCCC2)c1-c1ccc2c(c1)OCO2	3.3
85	Cc1ccc(C)c(NC(=O)Cn2cc(C#N)c3ccccc32)c1	9.8
86	O=C(O)C[C@@H]1C=C[C@H](NC(=O)Nc2cc(F)ccc2F)[C@@H](CO)O1	28.5
87	CCc1cc(CN(C)Cc2ccc(-n3ccnc3)cc2)on1	8.3
88	CCOc1ccc(-c2nc(Cn3ccn4nc(-c5ccc(C)c(C)c5)cc4c3=O)c(C)o2)cc1OC	-63.5
89	C[C@@H]1CC=CC[C@H](c2ccc(F)cc2)NC(=O)[C@@H](Cc2ccccc2)N(C)C(=O)c2ccccc2O1 (mixture of isomers)	-58.3
90	COc1ccc(NC(=O)C(=O)NCCc2csc(-c3ccc(F)cc3)n2)cc1OC	51.7

Arranged by SMILES length (rising): part of the list above
item	SMILES	Tg IFNy HTS
82	C=CCC(=O)N(C)CCSc1ccc(C)cc1	9.7
81	Cn1cc(CN2CCC(CNC(=O)NCc3ccccc3)C2)cn1 (stereo unspecified)	-9.2
84	O=c1[nH]ncc(N2CCCC2)c1-c1ccc2c(c1)OCO2	3.3
85	Cc1ccc(C)c(NC(=O)Cn2cc(C#N)c3ccccc32)c1	9.8
89	C[C@@H]1CC=CC[C@H](c2ccc(F)cc2)NC(=O)[C@@H](Cc2ccccc2)N(C)C(=O)c2ccccc2O1 (mixture of isomers)	-58.3

Next structures:
item	SMILES	Tg IFNy HTS
91	COc1cc(NC(=O)N2CCc3nc(-c4ccc(C)cc4)sc3C2)cc(OC)c1	31.2
92	Cc1cccc(CN2CCC3(CC(C(=O)NCc4ccco4)=NO3)C2)c1 (stereo unspecified)	-15.7
93	Cc1ccc(-c2coc(-c3ccc(NC(=O)C4CCCCC4)cc3)n2)c(C)c1	-52.9
94	COc1cc(Nc2nc(-c3nnc(-c4ccccc4)o3)nc3ccccc23)cc(OC)c1OC	-125.3*
95	CN1CCCC2(CCN(C(=O)c3ccc(-c4ccccc4)[nH]3)C2)C1=O (stereo unspecified)	153.9
96	CC(C)NC(=O)C[C@H]1OC[C@@H]2CN(S(C)(=O)=O)CC[C@H]21	0.6
97	O=c1[nH]nc(CCCO)n1C1CCCC1	-4.5
98	COc1ccc(NC(=O)C2CC3(CCNCC3)c3ccccc32)cc1 (stereo unspecified)	0.6
99	O=C(COc1ccccc1)N1CCC(c2cc3nc(C(F)(F)F)ccc3[nH]2)CC1	16.6
100	CCOCc1nnc2n1CCN(Cc1c(C)noc1C)CC2	-13.8
101	COc1ccc(Oc2ccc(C(F)(F)F)cn2)cc1CN1CCCC1	-49.1
102	Cn1ccnc1CN1CCC2(COCCN(C(=O)c3cccs3)C2)C1 (stereo unspecified)	4.1
103	CCOc1cccc(C2c3[nH]c4ccccc4c3CCN2C(=O)c2cccnc2)c1 (stereo unspecified)	189.0
104	CCCc1ccc(N2C(=O)C3CCC(C)CC3C2=O)cc1 (stereo unspecified)	7.5
105	CCN(C(=O)c1cccc(NC(=O)c2ccc(=O)[nH]c2)c1)c1ccccc1	-34.9
106	COc1cc2c(cc1OC)CN(Cc1cc3n(n1)CCCNC3)CC2	-0.8
107	COc1ccc(CCNC(=O)N2CCC(n3cc(CN)nn3)CC2)cc1	3.0
108	CCN(CC)Cc1nc2c(o1)CNC2	-16.6
109	CS(=O)(=O)CC(=O)NCC1OCCc2cn(CC3CC3)nc21 (stereo unspecified)	-2.1
110	Cc1cccc(NC(=O)c2ccc3nccnc3c2)c1C	-25.5
111	CCn1c2ccccc2c2cc(CN3CCN(Cc4ccco4)CC3)ccc21	-14.4
112	CCCCN(C)C(=O)c1cc2cccnc2n(Cc2ccccc2)c1=O	20.0
113	COc1ccccc1-c1nc(Cn2nnc(-c3nc(-c4ccc(C)c(C)c4)no3)c2C)c(C)o1	-11.2
114	Cc1nc(OCC(=O)Nc2c(C)cccc2C)c2ccccc2n1	3.7
115	Cc1cc(C)n(CC(C)NC(=O)c2cc(CN3CCC(O)CC3)on2)n1 (stereo unspecified)	5.2
116	CCc1ccc(S(=O)(=O)N2CCC3(CC2)NCCN=C3NC2CCCCCC2)cc1	-52.0
117	COc1ccc(CN(Cc2ccccc2)Cc2nnnn2CCc2ccccc2)cc1	-68.2
118	O=C(Nc1ccccn1)C1CCN(C(=O)c2ccc3nsnc3c2)C1 (stereo unspecified)	17.6
119	CCCc1oc(C(=O)N2CCN(C)CC2c2ccccc2)cc1CN1CCOCC1 (stereo unspecified)	7.7
120	CCOC(=O)Cn1c2c(c(C(F)(F)F)cc1=O)C(=O)CCC2	-4.1
121	CC(Oc1ccccc1-c1ccccc1)C(=O)N(C)Cc1n[nH]c2c1CCCC2 (stereo unspecified)	-24.8
122	COc1ccccc1-c1cc(CNCC(=O)Nc2cccc(C)c2C)on1	1.4
123	CNC(=O)[C@H]1C[C@@H]2CN(Cc3nccs3)C[C@@H]2N1C(C)C	26.0

A portion of the library (hit frequency here may not be typical).
